# From PubChem
# GIRK2 act – activators of human GIRK2 potassium channels; G protein-activated inward rectifier potassium channel 2 (Homo sapiens), P48051; 0.05% of 63,000 active; calls only for hits at 25 µM; HEK293-GIRK2 thallium flux, Thallos fluorescence;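 active means among the strongest 0.2% of first-round signals and kept after retests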;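 further: first round at about 10 µM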
# Target sequence (P48051 whole entry, looked up): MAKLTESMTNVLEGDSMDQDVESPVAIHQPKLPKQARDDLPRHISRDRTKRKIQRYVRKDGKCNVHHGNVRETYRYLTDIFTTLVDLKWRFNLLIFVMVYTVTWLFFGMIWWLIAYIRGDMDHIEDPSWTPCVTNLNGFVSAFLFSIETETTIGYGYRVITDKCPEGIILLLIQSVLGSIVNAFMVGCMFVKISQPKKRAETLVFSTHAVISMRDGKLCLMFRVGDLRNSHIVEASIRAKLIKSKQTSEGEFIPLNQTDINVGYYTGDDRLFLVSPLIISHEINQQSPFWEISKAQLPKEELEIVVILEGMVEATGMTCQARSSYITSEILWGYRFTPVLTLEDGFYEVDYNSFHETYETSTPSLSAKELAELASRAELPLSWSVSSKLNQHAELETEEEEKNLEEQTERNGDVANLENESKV
# Calls only; i = inactive. This is a subset; the hit share may differ from the screen's.
GIRK2 act	canonical_smiles
i	CCC(Sc1ncc(S(=O)(=O)c2ccc(C(C)C)cc2)c(=O)[nH]1)C(=O)Nc1ccccc1F (centres undefined)
i	Cc1ccc(-c2noc(C3CCN(S(=O)(=O)c4ccccc4)CC3)n2)cc1
i	O=C(Nc1ncc(Cc2ccc(F)cc2)s1)C1=Cc2ccccc2OC1
i	CCNC(=O)c1cn(-c2ccc(SCC(=O)Nc3ccccc3C(F)(F)F)nn2)cn1
i	CCCCOC(=O)c1ccc(N2C=C(C#N)S(=O)(=O)c3ccccc32)cc1
i	CCN1C(=O)C(C)(C)COc2ccc(NC(=O)Nc3ccc(C)cc3)cc21
i	CCOC(=O)c1cnn(-c2ccc(C(=O)NCc3ccco3)cn2)c1C
i	CCc1ccccc1NC(=O)N1CCN(c2ccc(-n3cccc3)nn2)CC1
i	Cc1cc(C(=O)NCc2cnn3ccccc23)no1
i	Cc1nc(-c2ccccc2)sc1CNS(=O)(=O)c1ccccc1Cl

# Reprinted from the part before: 3 compounds, then new ones.
GIRK2 act	canonical_smiles
i	CCc1ccccc1NC(=O)N1CCN(c2ccc(-n3cccc3)nn2)CC1
i	Cc1cc(C(=O)NCc2cnn3ccccc23)no1
i	Cc1nc(-c2ccccc2)sc1CNS(=O)(=O)c1ccccc1Cl
i	O=C(NCCC1CCCCN1S(=O)(=O)c1cccs1)C1(c2ccccc2)CCOCC1 (centres undefined)
i	O=C(Cc1cccs1)NCC1CCN(c2ccccn2)CC1
i	Cc1ccc(C(=O)N2CCN(c3ncnc4c3nnn4-c3cccc(F)c3)CC2)cc1
i	CNC(=O)CSc1nnc(N2CCN(C(=O)c3ccc(C(C)(C)C)cc3)CC2)s1
i	CC(=O)N1CCc2c(sc(NC(=O)c3cccc(C)c3)c2-c2nc3ccccc3s2)C1
i	CCCC(=O)N1CCOCC1CN(C)CCO (centres undefined)
i	O=C(COc1ccccc1F)N1CCC(COCc2ccccc2)CC1
i	CCOC(=O)N1CCc2c(sc(NC(=O)Cc3ccccc3)c2-c2nc3ccccc3s2)C1
i	COc1ccccc1CN1CCc2nc(SCC(=O)Nc3cccc(C(C)=O)c3)[nH]c(=O)c2C1
i	O=C(Nc1cnc(Oc2ccccc2F)nc1)c1ccco1

# Structural class, the entries above containing an NH in an aromatic ring.
GIRK2 act	canonical_smiles
i	CCC(Sc1ncc(S(=O)(=O)c2ccc(C(C)C)cc2)c(=O)[nH]1)C(=O)Nc1ccccc1F (centres undefined)
i	COc1ccccc1CN1CCc2nc(SCC(=O)Nc3cccc(C(C)=O)c3)[nH]c(=O)c2C1

# (more compounds)
GIRK2 act	canonical_smiles
i	Cn1c2ccccc2c(=O)c2c(=O)n(Cc3ccco3)c(COc3ccccc3)nc21
i	CN(C)CCNC(=O)C(=O)c1cn(CC(=O)N2CCOCC2)c2ccccc12
i	CCC(=O)Nc1nc(-c2cccc(N(C(=O)CC)S(=O)(=O)c3ccccc3)c2)cs1
i	N#Cc1nc(-c2ccc(COc3ccc(Cl)cc3)o2)oc1N1CCC(C(N)=O)CC1
i	COc1ccc(NC(=O)Cn2cccc(S(=O)(=O)N3CCCC3)c2=O)cc1OC
i	COC(=O)c1ccc2c(=O)n(Cc3ccccc3)c(N3CCN(c4ccccc4)CC3)nc2c1
i	O=C(Nc1cnoc1)C1(c2ccccc2)CCOCC1
i	O=C(CSc1ncc(-c2cccc([N+](=O)[O-])c2)n1-c1ccc(F)cc1)N1CCCC1
i	COc1ccc(C(=O)Nc2sc3c(c2-c2nc4ccccc4s2)CCN(C(C)=O)C3)cc1OC
i	CCCCc1ccc(-n2nnc(C(=O)NCCCN3CCOCC3)c2C)cc1
i	Cc1cc(C(=O)NCC2(c3ccccc3)CCOCC2)c(C)o1
i	COc1ccc(SCC2CCN(C(=O)NCc3ccc(OC)c(OC)c3)CC2)cc1
i	Cc1nc(-c2cccs2)sc1CNC(=O)C1CCN(S(C)(=O)=O)CC1
i	O=C(c1ccc(S(=O)(=O)N2CCOCC2)o1)N1CCN(c2cccc(Cl)c2)CC1
i	O=C(NCCC(O)c1ccc2c(c1)OCO2)C(=O)NCc1cccs1 (centres undefined)
i	COc1ccc(NS(=O)(=O)c2ccc(N3C(=O)CCC3=O)cc2)cc1OC
i	Cc1ccc(-n2c(C)nc3ccc(NC(=O)c4cccc([N+](=O)[O-])c4C)cc3c2=O)cc1
i	COc1cccc2c(SCC(=O)N3CC(C)OC(C)C3)nccc12 (centres undefined)
i	Cc1ccnc(Nc2cc(NCCNC(=O)c3ccccc3C)nc(C)n2)c1
i	O=C1OC2CC1N(C(=O)c1cnn(-c3ccccc3)n1)C2 (centres undefined)
i	CCCCOC(=O)c1ccc(N2C=C(C#N)S(=O)(=O)c3c(F)cccc32)cc1
i	Cc1cc2oc(=O)cc(CN3CCN(CCO)CC3)c2cc1O
i	O=C(c1ccc2nsnc2c1)N1CCC(Oc2ccc(C(F)(F)F)cn2)CC1
i	CN(c1ccsc1C(=O)NCc1cccs1)S(=O)(=O)c1ccccc1
i	COc1cc(NC(=O)COc2cc(C)nc(-c3ccc(C)cc3)n2)cc(OC)c1
i	CCOc1ccc(CC(=O)NC2CCN(c3nccs3)CC2)cc1
i	CC(=O)Nc1ccc(NC(=O)c2ccc3noc(-c4ccccc4)c3c2)cc1
i	Cc1nc(C)c(-c2nnc(NC(=O)C3CCN(S(=O)(=O)c4ccc(Cl)s4)CC3)o2)s1
i	CN1CCN(c2ncc(NC(=O)c3ccc(C(F)(F)F)cc3)cn2)CC1
i	O=S(=O)(Cc1cccc(F)c1)N1CCCC(c2nnc(-c3cccs3)o2)C1 (centres undefined)

# Rewritten as tab-separated lines: three of the compounds above
molecule	GIRK2 act
Cc1nc(C)c(-c2nnc(NC(=O)C3CCN(S(=O)(=O)c4ccc(Cl)s4)CC3)o2)s1	i
CN1CCN(c2ncc(NC(=O)c3ccc(C(F)(F)F)cc3)cn2)CC1	i
O=S(=O)(Cc1cccc(F)c1)N1CCCC(c2nnc(-c3cccs3)o2)C1 (centres undefined)	i

# Following part
GIRK2 act	canonical_smiles
i	O=C(/C=C/c1ccc2c(c1)OCO2)Nc1onc2c1CSC2
i	Cn1cccc1CN(Cc1cccs1)C(=O)C1CC1
i	CN(CCO)CC1COCCN1C(=O)c1ccc(Br)o1 (centres undefined)
i	Cn1cc(CC(=O)NCCOc2cccc3cccnc23)c2ccccc21
i	Cc1ccc(-c2cc3c(=O)n(CC(=O)Nc4ccc5c(c4)OCO5)ncn3n2)cc1C
i	COc1ccc(C2=C(N3CCc4ccccc43)C(=O)NC2=O)cc1
i	COc1ccccc1N1C(=O)N(c2ccccc2Cl)C2CS(=O)(=O)CC21 (centres undefined)
i	Cc1cc(S(=O)(=O)n2ccnc2)cc([N+](=O)[O-])c1C
i	O=C(CSCc1ccccc1)N(Cc1ccsc1)Cc1ccco1
i	N#Cc1ccc(CSc2nc(CC(=O)N3CCCc4ccccc43)cc(=O)[nH]2)cc1
i	CCOc1cc(C(NC(=O)c2ccco2)NC(=O)c2ccco2)ccc1OC
i	COc1ccc(-c2noc(-c3cn(C)c4ccc(C)cc4c3=O)n2)cc1OC
i	COc1ccc(S(=O)(=O)/C(C#N)=C\Nc2ccc3c(c2)OCCO3)cc1
i	Cc1cc(=O)n(CC(=O)N2CCCc3ccccc32)c(N2CCCC2)n1
i	O=C(NCC#CCN1CCCCC1)c1c(F)cccc1F
i	CCn1cc(C(=O)NCCn2nc(-n3nc(C)cc3C)ccc2=O)c(=O)c2ccc(C)nc21
i	COc1ccc(NC(=O)CCc2csc(NC(=O)c3ccc[nH]c3=O)n2)cc1Cl
i	CCOc1ccc(N2CC(c3nc(-c4ccccc4)no3)CC2=O)cc1 (centres undefined)
i	O=C(CCN1C(=O)c2ccccc2C1=O)OCC(=O)c1ccc(Cl)cc1Cl
i	Cc1cc(-c2nnc(NC(=O)COc3cccc4c3OC(C)(C)C4)o2)c(C)o1
i	Cc1cc(C)cc(-n2nnc3c(=O)n(CC(=O)N4CCN(c5ccccc5)CC4)cnc32)c1
i	CCOc1ccccc1NC(=O)c1nnn(-c2ccc(F)cc2)n1
i	O=C1c2c(O)cc(O)cc2O[C@H](c2ccc(O)c(O)c2)[C@@H]1O
i	Cc1nccn1-c1cc(NCCNC(=O)Nc2ccc3c(c2)OCCO3)ncn1
i	Cc1ccc(NS(=O)(=O)c2ccccc2)c(C(=O)c2ccccc2)c1
i	CCOc1ccc(NC(=O)CSc2cc(C)c3ccccc3n2)cc1
i	Cc1ccc(-c2nc3c(c(=O)n2CC(=O)NCc2ccco2)CCN(Cc2ccccc2)C3)cc1
i	C#CCCNS(=O)(=O)c1ccc(C)s1
i	O=C(Cc1csc(Nc2ncccn2)n1)NCc1cccs1
i	Cc1noc(CNC(=O)c2ccc(C(C)(C)C)cc2)n1
i	Cn1c(SCCC(=O)O)nnc1-c1ccc2c(c1)OCO2
i	COc1cc(OC)c(C(=O)CCCN2CCCC2)c(OC)c1
i	O=C(Cn1nc2c(Sc3ccccc3)nccn2c1=O)Nc1cc(F)ccc1F
i	O=C(CN1CCN(c2ccccc2)CC1)NC1C2CC3CC(C2)CC1C3 (centres undefined)
i	COc1ccc(C(=O)/C=C/c2cccs2)c(OC(=O)c2cccc([N+](=O)[O-])c2)c1
i	Cn1nc(-c2ccc(F)cc2)cc1C(=O)NCCn1nc(-c2ccccn2)n(C)c1=O
i	CCCCSc1nnc(N2CCN(c3ccccc3)CC2)s1
i	O=C(Nc1cnc(-n2cccn2)nc1)c1ccccc1Cl
i	CC(C)(C)NC(=O)NC(C(=O)O)C(C)(C)C (centres undefined)
i	CCOc1ccc(-c2cc3c(=O)n(CC(=O)Nc4ccc(OC)cc4OC)ncn3n2)cc1
i	COc1ccc(Oc2c(C)oc3cc(OC)ccc3c2=O)cc1
i	O=C(CCc1csc(NC(=O)c2ccc(F)cc2)n1)NCc1ccc2c(c1)OCO2
i	CCOC(=O)C1CCCN(C(=O)C2CSc3nc(C)c(CC)c(=O)n3C2)C1 (centres undefined)
i	O=C(Nc1ccc2c(c1)OCO2)c1c(O)c2ccccc2[nH]c1=O
i	O=C1CC(c2noc(-c3ccccn3)n2)CN1c1ccccc1 (centres undefined)
i	COCCNC(=O)C(=O)NCCC1CCCCN1S(=O)(=O)c1ccc(Cl)cc1 (centres undefined)
i	CCOc1ccc2c(c1)c(=O)c(S(=O)(=O)c1ccc(C)cc1)cn2CC(=O)Nc1ccccc1
i	Cc1cc(N2C(=O)CCS2(=O)=O)ccc1S(=O)(=O)NC1CCCCC1
i	CCCS(=O)(=O)N1CCCc2cc(NS(=O)(=O)c3ccc(OCC)cc3)ccc21
i	CN(C)S(=O)(=O)c1ccc2c(c1)CCN2C(=O)c1cncc(Br)c1

# Another view of some results above.
Compound	GIRK2 act
O=C1CC(c2noc(-c3ccccn3)n2)CN1c1ccccc1 (centres undefined)	i
CN(C)S(=O)(=O)c1ccc2c(c1)CCN2C(=O)c1cncc(Br)c1	i

# Further results:
GIRK2 act	canonical_smiles
i	CCc1nnc(NC(=O)c2ccoc2COc2ccccc2)s1
i	COc1ccc2nc(-n3nc(C)cc3NC(=O)c3cc(C)on3)sc2c1
i	CCOC(=O)CSc1nnc(C(C)C)c2cnn(-c3ccc(F)cc3)c12
i	CC(C)N1CCC(CNC(=O)NC(C)(C)C)CC1
i	COc1ccc(-c2noc(CN3C(=O)COc4ccc(C(C)(C)C)cc43)n2)cc1OC
i	COC(=O)c1sccc1N(Cc1ccc(F)cc1)S(C)(=O)=O
i	COc1cccc(NC(=O)Cn2c(=O)cc(-c3nc(C(C)C)no3)c3ccccc32)c1
i	CN(C)C(CNC(=O)c1ccoc1)c1ccc2c(c1)CCO2 (centres undefined)
i	COc1ccc(NC(=O)Nc2ccc3c(c2)CCCN3C(=O)c2ccccc2)cc1
i	CC(C)OC(=O)CCC/C=C\CC1C(O)C[C@H](F)[C@@H]1/C=C/[C@H](O)C1Cc2ccccc2C1 (some centres undefined)
i	NS(=O)(=O)c1ccc(Nc2cc(-c3ccc(O)c(F)c3)[nH]n2)cc1
i	Cc1cc(-c2nnc(NC(=O)CSc3ccc(F)cc3)o2)c(C)o1
i	CC(=O)c1ccc(NC(=O)CCCSc2nc(C)cc(C(F)(F)F)c2C#N)cc1
i	CC(O)C(O)c1cc(O)c2c(c1)C(=O)c1cc(O)cc(O)c1C2=O (centres undefined)
i	Cc1nc(OCC(=O)Nc2cccc(-c3csc(C)n3)c2)cc(-n2cccn2)n1
i	O=C(Nc1ncn[nH]1)c1cccc(S(=O)(=O)N2CCCCCC2)c1
i	COc1ccc(-c2csc3c(=O)[nH]c(N4CCN(c5cccc(C)c5)CC4)nc23)cc1
i	CCCc1cnc2c(c1SC(C(C)=O)C(=O)N(C)C)c(=O)n(C)c(=O)n2C (centres undefined)
i	CC(C)(Oc1ccc(Cl)cc1)C(=O)N1CCC(Oc2cnccn2)CC1
i	COc1cccc(Cn2c(SCC(=O)Nc3ncn[nH]3)nc3ccsc3c2=O)c1
i	COc1ccc(CC(=O)N2CCC(Oc3cnccn3)CC2)cc1OC
i	Cc1cccc(N(CC(=O)OC(C)(C)C)S(=O)(=O)c2cccn3c(C)nnc23)c1
i	O=C(NCC1(O)CCOc2ccccc21)Nc1ccccc1 (centres undefined)
i	CC(N)C12CC3CC(CC(C3)C1)C2 (centres undefined)
i	CCOC(=O)c1cnn2ccc(NC(=O)C3CC=CCC3)cc12 (centres undefined)
i	Cc1ccc2[nH]c3c(=O)n(CCC(=O)NC(C)C)cnc3c2c1
i	CCOc1cccc(CNC(=O)c2nnn(-c3ccc(C)c(C)c3)c2-c2cccnc2)c1
i	CCOC(=O)Cn1c(=O)c2c(nc3n(-c4cc(C)ccc4C)c(C)c(C)n23)n(C)c1=O
i	CCCCNC(=O)c1ccc(-n2ccnc2SCC(=O)NCc2ccc(OC)cc2)cc1
i	CC(C)(C)c1ccc(C(=O)CCl)cc1
i	COc1cc2c(cc1OC)C1Oc3c(cc(OC)c(OC)c3OC)C1CO2 (centres undefined)
